# Bioassay records from PubChem BioAssay.
# VDR inhibitor: blocks the human vitamin D receptor | VDR-SRC2-3 peptide fluorescence polarization, 2 h | Potency, µM, for the others: max response, negative = inhibition, hits mostly inhibitors | 400,000 compounds, 0.93% hits; active = well fitted inhibition curve with a large enough effect; inconclusive = small, poorly fitted or top-dose-only effect, or another doubt; inactive = no such curve, though single readings can be large or run the other way; also: series mostly up to about 120 µM
# Target sequence (P11473 whole entry, looked up): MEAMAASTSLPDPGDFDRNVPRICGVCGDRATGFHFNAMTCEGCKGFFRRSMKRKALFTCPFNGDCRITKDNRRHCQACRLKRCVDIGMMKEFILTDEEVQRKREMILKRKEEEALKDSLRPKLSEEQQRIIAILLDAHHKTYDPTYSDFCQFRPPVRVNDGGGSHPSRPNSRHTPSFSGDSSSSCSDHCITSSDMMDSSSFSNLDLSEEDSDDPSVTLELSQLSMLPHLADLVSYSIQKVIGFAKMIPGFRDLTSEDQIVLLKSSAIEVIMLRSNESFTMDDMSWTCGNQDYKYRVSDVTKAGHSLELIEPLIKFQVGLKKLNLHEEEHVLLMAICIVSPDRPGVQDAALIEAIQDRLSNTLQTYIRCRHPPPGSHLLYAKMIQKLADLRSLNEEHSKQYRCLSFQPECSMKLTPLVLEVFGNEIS
#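 Fluorescence polarization assay measuring small-molecule disruption of VDR binding to the coregulator peptide SRC2-3. Compounds were pin-transferred (23 nl) into the reagent mix and incubated 2 h at room temperature before reading.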
# * = called active by the depositor; ? = inconclusive; [ ] = another dose, or the depositor's remark. % is scaled to controls: 0 for no effect and ±100 for the full control effect; potency is read from the fitted curve at half-maximal effect. An excerpt; the hit share may differ from the screen's.
VDR inhibitor	molecule
4%	COc1ccccc1N1CCN(C(CNS(C)(=O)=O)c2cccnc2)CC1 (stereo not given)
-6%	CC12C=C(/C=C/c3ccc(Br)cc3)C(C)(C1)[C@H](c1ccc(Br)cc1)CC2=O (stereo not given in full)
-11%	COc1cccc(C(=O)OCC(=O)c2c(N)n(C)c(=O)n(C)c2=O)c1
-2%	O=C(CSc1ncccn1)NC(=O)NCc1ccccc1
0%	COc1cccc(CNC(=O)c2c(C)oc3ncnc(N4CCOCC4)c23)c1
-24%	Cc1cc(C(=O)COC(=O)c2ccncc2)c(C)n1CCc1ccc(F)cc1
9%	COc1ccc(CCN(C)C(=O)c2ccc(COc3ccccc3)o2)cc1OC
3%	CN(C)c1ccc(C(CNS(=O)(=O)c2ccc(Br)cc2)N2CCOCC2)cc1 (stereo not given)
-10%	Cc1ccsc1C(=O)N1CCN(c2ncc(C(F)(F)F)cc2Cl)CC1
9%	CCNC(=O)c1ccc(C2SCC(=O)N2CCc2ccccc2)cc1 (stereo not given)
1%	CCOc1ccc(C(=O)Nn2cnnc2)cc1OCC
?	CCCN(CC(=O)Nc1ccccc1C)C(=O)COC(=O)CSc1ccc([N+](=O)[O-])cc1
12%	COc1cc(NC(=O)CN2CCN(c3ccc(F)cc3)CC2)cc(OC)c1
-6%	O=C(O)CNC(=O)c1ccc(NC(=O)/C(=C/c2ccccc2)NC(=O)c2ccccc2Br)cc1
0%	Cc1nn(C)c(Cl)c1CN1CCCC(CO)(Cc2cccc(Cl)c2)C1 (stereo not given)
-25%	CC(NC(=O)Nc1ccccc1)C(c1ccccc1)N1CCOCC1 (stereo not given)
-2%	CCOc1cc(C)c(Cl)cc1S(=O)(=O)NCCOC
-9%	CN(c1ccccc1)C1CCCCC1NS(=O)(=O)c1ccc(Cl)cc1 (stereo not given)
-11%	CC(C)(C)N(Cc1ccccc1)C(=O)COC(=O)[C@@H]1CCCN1C(=O)c1cccs1
-26%	Cc1ccc(CN2C3CCCC2CC(NC(=O)c2ccc(F)cc2)C3)cc1 (stereo not given)
-16%	FC(F)(F)c1nnc2ccc(N3CCN(c4ccccc4)CC3)nn12
-1%	CCn1cc(/C=C(\NC(=O)c2ccc(C)cc2)C(=O)NCCCn2ccnc2)c2ccccc21
-7%	C=CCn1c(SCC(=O)c2ccc(O)c(O)c2)nnc1-c1ccc(OC)cc1
10%	O=C(Nc1ccc(S(=O)(=O)NCc2ccccc2)cc1)Nc1ccc2c(c1)OCO2
-9%	Nc1c2c(=O)[nH]c(O)cc2nn1-c1ccccc1

# The final 2 entries of the part above lead into the next:
VDR inhibitor	molecule
10%	O=C(Nc1ccc(S(=O)(=O)NCc2ccccc2)cc1)Nc1ccc2c(c1)OCO2
-9%	Nc1c2c(=O)[nH]c(O)cc2nn1-c1ccccc1
-5%	CC1(C)Cc2nc3sc4c(N(CCO)CCO)ncnc4c3cc2CO1
-8%	COc1ccc(N2CCN(C(=O)C3=NNC(=O)CC3)CC2)cc1
1%	COc1ccc(OCC(=O)N/N=C(\C)CC(=O)Nc2cccc([N+](=O)[O-])c2)cc1
-14%	COc1ccc(S(=O)(=O)N2Cc3ccccc3CC2C(=O)Nc2cccc(C)c2)cc1OC (stereo not given)
-9%	Cc1ccc(N(CC(=O)NCCSCc2ccco2)S(=O)(=O)c2ccc(F)cc2)cc1
-4%	COc1ccc(NC(=O)COC(=O)c2ccc(F)cc2F)cc1
-7%	CCOC(=O)c1sc2ccccc2c1S(=O)(=O)N1CCN(c2ccccc2)CC1
-4%	COc1ccc(CCNS(=O)(=O)c2ccc(F)c(C(=O)Nc3ccc(Cl)cc3)c2)cc1OC
14%	Cc1nc(Oc2ccc(Cl)cc2)c2oc3ccccc3c2n1
-24%	O=[N+]([O-])c1ccc(N=NNc2ccccc2)cc1
-6%	Oc1c(C(c2ccco2)N2CCOCC2)sc2ncnn12 (stereo not given)
?	Cc1onc(-c2ccccc2)c1C(=O)Nc1nncs1
-11%	Cn1cccc1/C=N/NC(N)=S
9%	O=C1c2cccc3cc([N+](=O)[O-])cc(c23)C(=O)N1CCN1CCCC1
3%	Cc1ccc(OCCOc2cccc(Br)c2)c([N+](=O)[O-])n1
?	O=C(/C=C/c1cccc(C(F)(F)F)c1)NNC(=O)c1ccncc1
6%	Cc1ccc(CNC(=O)Cc2ccc(-c3ccccc3)cc2)cc1
-6%	Cn1c(=O)c2c(SCC(=O)c3ccccc3)nc(C3CC3)nc2n(C)c1=O
-5%	O=C(Nc1ncccc1O)c1cccc(S(=O)(=O)N2CCCc3ccccc32)c1
-13%	Cc1cc(O)c(C(c2ccc(F)cc2)N2CCN(c3ccccc3)CC2)c(=O)n1Cc1ccco1 (stereo not given)
-27%	COc1ccc(C2CC(c3ccccc3)=NN2C(=O)COC(=O)c2cccnc2Cl)cc1 (stereo not given)
-10%	COc1ccc(-c2nc3ccccc3o2)cc1NC(=O)c1ccc(-c2cccc(Cl)c2C)o1
13%	Cn1cc(/C=C(\C#N)C(=O)Nc2ccccc2O)c2ccccc21
-17%	CN(Cc1ccccc1)C(=O)COC(=O)CCNC(=O)c1ccccc1Cl
-19%	CCOc1ccc(NC(=O)CN(C)C(=O)COc2cccc(CC)c2)cc1OCC

# Sorted by value in VDR inhibitor (highest first): 3 of the compounds above.
VDR inhibitor	molecule
-6%	Cn1c(=O)c2c(SCC(=O)c3ccccc3)nc(C3CC3)nc2n(C)c1=O
-9%	Cc1ccc(N(CC(=O)NCCSCc2ccco2)S(=O)(=O)c2ccc(F)cc2)cc1
-17%	CN(Cc1ccccc1)C(=O)COC(=O)CCNC(=O)c1ccccc1Cl

# (list continues)
VDR inhibitor	molecule
-7%	Cc1ccc(Sc2ccc(N)cn2)cc1
-17%	O=C(Nc1ccccc1C(=O)NC(Cc1c[nH]c2ccccc12)C(=O)O)c1ccco1 (stereo not given)
5%	CCn1c(NCc2ccc3c(c2)OCO3)nc2ccccc21
-5%	O=C(NCc1ccncc1)c1nc(-c2cccs2)no1
43%[activator]	O=C(O)CCC(=O)N1CCc2cc(S(=O)(=O)NCc3ccc(Cl)cc3)ccc21
-16%	CCOC(=O)N1CCC(NS(=O)(=O)c2ccccc2)CC1
-16%	CCn1c(SCc2ccccc2)nc2ccccc2c1=O
-17%	COc1nc2ccc(C)cc2cc1-c1noc(-c2cccnc2)n1
-5%	Cc1ccc(CSc2nnc(-c3cccc(S(=O)(=O)N4CCOCC4)c3)n2C2CCCC2)cc1
9%	CCCCOc1ccc(C(=O)NCCc2sc3nc(-c4ccc(OC)cc4)nn3c2C)cc1
-19%	CCN(CC)c1nc(N2CCN(CCO)CC2)nc2ccccc12
-2%	COc1ccccc1CNc1ncncc1-c1ccc(C(=O)N(C)C)cc1
8%	Cc1ccc(S(=O)(=O)N(C)c2ccc(NS(C)(=O)=O)cc2)cc1
-15%	COc1ccc(N=Cc2cc(Cl)ccc2O)cc1Cl
1%	COC(CNC(=O)C1CCN(S(=O)(=O)c2ccc3nc4c(c(C(=O)O)c3c2)CC(C)CC4)CC1)OC (stereo not given)
6%	O=[N+]([O-])c1cccnc1SCc1c(F)cccc1Cl
0%	O=C(O)CNC(=O)/C=C/c1c(Cl)cccc1Cl
-2%	Cc1ccc(C(=O)N2[C@@H]3CN(C)C(=O)[C@@]2(C)[C@H]2C(=O)N(C)C(=O)[C@@H]32)cc1
-7%	CN1CCN(c2ccc(-c3ccc4ccccc4n3)cc2)CC1
3%	COC(=O)C1CCN(C(=O)c2ccc(Cl)c(S(=O)(=O)NCc3cccnc3)c2)CC1
-2%	CCOC(=O)N1CCN(S(=O)(=O)c2cc(OCC(=O)NC3CCCCC3)c(C)cc2Cl)CC1
1%	CCC(C(=O)Nc1cc(C(=O)O)ccc1C)c1ccccc1 (stereo not given)
2%	CCCCc1nn2c(=O)cc(COC(=O)c3ccc(NC(=O)c4cccc(OC)c4)cc3)nc2s1
2%	O=C(COc1ccc(Cl)cc1)Nc1ccccc1C(=O)NCc1ccco1
22%	CC(C)(Oc1ccc(Cl)cc1)C(=O)NCC1CCCO1 (stereo not given)
2%	CCCOc1ccc(C2c3c(oc4cc(C)c(C)cc4c3=O)C(=O)N2CCCN(C)C)cc1OCC (stereo not given)
-19%	CCN1C(=O)/C(=C2/C=Cc3ccccc3N2CC)SC1=S
-19%	N#Cc1c(C(F)(F)F)cc(-c2cccs2)nc1SCc1ccc(F)cc1
15%	CCCCOc1ccc(NC(=O)CSc2ccc(C(=O)O)cn2)cc1
-6%	CC(C)C(C(=O)Nc1ccc2c(c1)OCO2)N1C(=O)c2ccccc2C1=O (stereo not given)
4%	C=CCn1c(SCC(=O)Nc2nc(C)cs2)nnc1C(CO)NC(=O)c1ccccc1 (stereo not given)
-3%	Cc1ccc(NC(=O)C2CCN(S(C)(=O)=O)CC2)cc1
9%	COc1ccc(Cl)cc1NC(=O)CN1CCC(n2nnc3cc(C)ccc32)CC1
19%	COc1cc(OC)c(NC(=O)C(=O)CC(=O)c2ccc(C)cc2C)cc1Cl
2%	Cc1nn(-c2ccccc2)nc1C(=O)NNC(=O)c1cccc2ccccc12
20µM*	Cc1cc(C)cc(NC(=O)Cn2nnc(C(=O)NCc3ccc(F)cc3)c2N)c1
-12%	CCN(CC)c1nc2c(c(=O)[nH]c(=O)n2C)n1CCCc1ccccc1
3%	CCn1cc(C(=O)O)c(=O)c2cnc(N3CCN(C(=S)NC(=O)c4ccc(F)c(F)c4)CC3)nc21
-2%	Cc1cccc(CSc2nnc(N)n2-c2ccccc2)c1
-4%	CC1CCCCN1CC(=O)Nc1sc2c(c1C#N)CCC2 (stereo not given)
-16%	O=C(Nc1nccs1)C(F)(F)C(F)(F)C(F)(F)C(=O)Nc1nccs1
-9%	Cc1c(NC(=O)C2CCCN2S(=O)(=O)c2ccccc2)c(=O)n(-c2ccccc2)n1C (stereo not given)
-6%	COC(=O)c1ccc(C)c(NC(=O)CCSc2ccccc2)c1
-4%	COc1ccc(NC(=O)CCCN2C(=O)C(c3ccccc3)Oc3cccnc32)cc1 (stereo not given)
2%	CN(CC(=O)Nc1ccccc1Br)C(=O)CN1CCN(Cc2cccc(Cl)c2)CC1
-6%	O=C(CNC(=O)c1cncc(Br)c1)Nc1ccc(F)c(F)c1F
-7%	O=c1c2nnn(-c3ccccc3)c2ncn1C/C=C/c1ccccc1
3%	C=C1CCN(C(C)C(=O)OCc2cccc(C)c2)S(=O)(=O)c2ccccc21 (stereo not given)
-28%	CCN(CC)c1ccc(/C=N/N(c2ccccc2)c2ccccc2)c(O)c1
-13%	CCOC(=O)C1CCN(C(=O)CCCn2nc(CC)n3c(cc4occc43)c2=O)CC1

# Taken from above.
# COc1cc(OC)c(NC(=O)C(=O)CC(=O)c2ccc(C)cc2C)cc1Cl in VDR inhibitor reads 19%
# Cc1ccc(NC(=O)C2CCN(S(C)(=O)=O)CC2)cc1 in VDR inhibitor reads -3%
# CC(C)C(C(=O)Nc1ccc2c(c1)OCO2)N1C(=O)c2ccccc2C1=O (stereo not given) in VDR inhibitor reads -6%
# C=CCn1c(SCC(=O)Nc2nc(C)cs2)nnc1C(CO)NC(=O)c1ccccc1 (stereo not given) in VDR inhibitor reads 4%
# Cc1cc(C)cc(NC(=O)Cn2nnc(C(=O)NCc3ccc(F)cc3)c2N)c1 in VDR inhibitor reads 20µM*
# Cc1c(NC(=O)C2CCCN2S(=O)(=O)c2ccccc2)c(=O)n(-c2ccccc2)n1C (stereo not given) in VDR inhibitor reads -9%
# CCCCOc1ccc(NC(=O)CSc2ccc(C(=O)O)cn2)cc1 in VDR inhibitor reads 15%

# Continuation:
VDR inhibitor	molecule
0%	CS(=O)(=O)N1CCC(C(=O)Nc2cccc(Cl)c2)CC1
1%	NC(=O)CC(NC(=O)c1ccccc1)c1ccc(NC2CCCCC2)c([N+](=O)[O-])c1 (stereo not given)
-15%	O=C(N/N=C/c1ccc2c(c1)OCO2)C(O)c1ccccc1 (stereo not given)
0%	CC(C)c1ccc(/C=N\NC(=O)c2ccc(Cn3cccn3)o2)cc1
-5%	COc1cc(C(=O)NCC(c2cccnc2)N2CCc3ccccc32)cc(OC)c1OC (stereo not given)
-4%	COc1ccc(S(=O)(=O)N(CC(=O)NCc2ccc(C)cc2)c2ccc(Cl)cc2)cc1
4%	CC(=O)N1CCc2cc(S(=O)(=O)CCC(=O)Nc3c(C)n(C)n(-c4ccccc4)c3=O)ccc21
-8%	COc1cc(C=O)c(-c2c(C=O)cc(OC)c3c2OCO3)c2c1OCO2
-20%	Cc1ccc2nc3ccc(N4CCCCCCC4)nn3c(=O)c2c1
-10%	CCOc1ccc(OCCCC(=O)NNC(=O)c2ccncc2)cc1
-2%	COc1cc(OC)nc(Oc2ccccc2/C=N/O)n1
4%	CCc1noc(C)c1C(=O)Nc1nc2c(F)cc(F)cc2s1
-5%	COCCN(C(=S)Nc1ccc(C)c(C)c1)C(C)c1ccco1 (stereo not given)
-8%	Cc1ccc(CC(NC(=O)c2ccc(C)cc2)C(=O)O)cc1 (stereo not given)
-4%	C=C/C(C)=C/C[C@H]1C(=C)CCC2[C@](C)(C(=O)O)CCC[C@@]21C (stereo not given in full)
2%	Nc1ccc(S(=O)(=O)Nc2ccc(S(N)(=O)=O)cc2)cc1
0%	CCOC(=O)c1[nH]cnc1C(=O)N1CCN(C(=O)OC(C)(C)C)CC1
6%	CN(C)S(=O)(=O)c1cc(NC(=O)COC(=O)C2CSC3(C)CCC(=O)N23)ccc1Cl (stereo not given)
-9%	CCOC(=O)c1cc(NC(=O)C2CCCO2)cc(C(=O)OCC)c1 (stereo not given)
-4%	CN(CCOc1ccccc1)C(=S)Nc1ccc(OC(F)F)cc1
-29%	CC(C)(C)[C@@H]1COC(=O)[C@H](Cc2ccc(F)cc2)CC/C=C\C[C@H](CC(=O)N(CCO)Cc2ccccc2)C(=O)N1
-2%	COc1ccc(S(=O)(=O)N2CCOCC2)cc1NC(=O)Cc1ccccc1Cl
1%	C#Cc1ccc([C@@H]2C=C(C(=O)OCC=C)O[C@H](OCC)[C@H]2CCCO)cc1
-5%	CCCCc1c(O)nc(SCCN(C)C)n(-c2ccccc2)c1=O
